Bioassay records (PubChem)
Six1-Eya2 blk: blocks human Six1 binding to Eya2; Q15475+O00167; AlphaScreen GST-Six1/His-Eya2 binding, biochemical; stronger effect = lower value; control for the full effect not named in the record; activity change, % (concentration not given with the values); actives 0.56% (n = 360,000); in the data active = activity change below about -65%; inconclusive = about -30% to -65%; inactive = above about -30%; note: % is set by controls: 0 for no effect and ±100 for the full control effect
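AlphaScreen luminescence read after one hour at 37 °C in darkness. Pin-transferred compounds met GST-Six1 and His-Eya2 protein (5X stock 250 nM/500 nM) plus glutathione donor and Ni-chelate acceptor beads (5X, 50 ug/mL).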
TRPV1 potentiator: enhances activation of the human vanilloid receptor TRPV1; Q8NER1; TRPV1-expressing cells, Fluo-8 calcium influx, capsaicin EC20 potentiation; host cell line not named in the record; control for the full effect not named in the record; potentiation, % at 8.33 µM; actives 0.02% (n = 320,000); AID 540277; active means potentiation above 80%; inconclusive means 30% to 80%; inactive means below 30%; note: 0% is about no effect
Target sequence (Q8NER1 whole entry, looked up): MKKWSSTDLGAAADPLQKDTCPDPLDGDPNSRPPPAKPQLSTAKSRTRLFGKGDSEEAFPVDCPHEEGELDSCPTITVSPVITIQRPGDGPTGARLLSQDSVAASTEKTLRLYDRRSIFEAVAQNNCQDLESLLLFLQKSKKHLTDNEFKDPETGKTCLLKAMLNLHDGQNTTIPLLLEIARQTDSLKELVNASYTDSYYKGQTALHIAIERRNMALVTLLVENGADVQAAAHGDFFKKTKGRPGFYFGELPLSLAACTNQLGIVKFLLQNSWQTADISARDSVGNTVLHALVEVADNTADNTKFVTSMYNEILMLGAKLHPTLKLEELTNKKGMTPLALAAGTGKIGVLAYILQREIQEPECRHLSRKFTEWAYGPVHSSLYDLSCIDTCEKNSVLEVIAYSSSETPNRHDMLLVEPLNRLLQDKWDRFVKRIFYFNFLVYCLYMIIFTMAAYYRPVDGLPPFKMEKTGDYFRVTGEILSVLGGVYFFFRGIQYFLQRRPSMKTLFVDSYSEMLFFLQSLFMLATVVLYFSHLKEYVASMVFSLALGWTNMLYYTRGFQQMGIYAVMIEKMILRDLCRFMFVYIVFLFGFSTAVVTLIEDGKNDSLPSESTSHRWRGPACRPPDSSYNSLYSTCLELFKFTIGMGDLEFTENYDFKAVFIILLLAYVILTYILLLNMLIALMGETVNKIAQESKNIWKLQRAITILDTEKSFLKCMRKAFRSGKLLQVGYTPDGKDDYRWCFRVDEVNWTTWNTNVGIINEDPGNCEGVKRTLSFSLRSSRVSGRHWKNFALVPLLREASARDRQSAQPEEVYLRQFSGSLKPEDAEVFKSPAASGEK
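Fluo-8 calcium influx in TRPV1-expressing cells, kinetic read (ex 480/em 520 nm). Compound added and read 3 min for agonist activity, followed by capsaicin at EC20 final and 2 min further read for enhancement.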
D2 potentiator: potentiates the human D2 dopamine receptor allosterically. P14416. DiscoveRx D2 beta-arrestin cells, luminescence, 90 min; 100% = 57 uM dopamine signal. potentiation, % (no concentration beside the values). actives 0.23% (n = 360,000). AID 624464; active = potentiation of 50% or more; inconclusive = 30% to 50%; inactive = 30% or less;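 note: compound concentration not given in the record; tested on top of an EC20 dose of dopamine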
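D2 cells co-treated with compound plus 50 nM dopamine (EC20) for 90 min at 37 deg C to detect potentiation. Beta-arrestin recruitment was read as enzyme-fragment luminescence after 1 h at ambient temperature. Full response was set by 57 uM dopamine.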
D2 ag: human D2 receptor agonism in beta-arrestin assay; actives 0.084% (n = 360,000); AID 624465; activation, % (test concentration not listed); P14416; DiscoveRx PathHunter D2 beta-arrestin, luminescence, 90 min; 100% = 57 uM dopamine signal; in the data active = activation above about 40%; inconclusive = about 15% to 40%; inactive = below about 15%; note: compound concentration not given in the record; the text of the record calls up to 30% inactive
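DiscoveRx PathHunter D2 beta-arrestin cells (2,100/well) attached overnight, then compound-stimulated 90 min at 37 C in HBSS/10 mM HEPES/0.1% Tween-20 buffer; beta-galactosidase complementation read by luminescence after 1 h at ambient temperature. Dopamine 57 uM final (EC100) as control.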
PINK1 expr mod: modulators of PINK1 expression; PINK1 immunofluorescence, high-content cytometry, 24 h; Potency, µM (series often up to 76.6 µM), for the others: top-dose activation (PINK1 increase), usual class: activators; actives 0.2% (n = 410,000); active = well fitted activation curve with a large enough effect; inconclusive = small, poorly fitted or top-dose-only effect; inactive = flat fitted curve, though single readings scatter; cell line not stated here;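 note: potency is the fitted concentration of half-maximal effect; % of control where 0% means no effect; nearly all actives have a fitted effect of over 65% in size; a mitochondrial uncoupler was the plate control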
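Compound titrations (5 concentrations, 24 h) on a stable cell line; DMSO and CCCP controls. Endpoint: fixed-cell PINK1 immunofluorescence with mitochondrial, cell and nuclear markers, scanned by microplate cytometer.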
Sfp PPTase inh: Sfp phosphopantetheinyl transferase inhibition; actives 3.5% (n = 310,000); AID 1490; Biochemical Sfp PPTase activity, qHTS; Potency, µM, for inactives: max response, negative = inhibition, actives largely listed as inhibitors; Q9F4F7; active = well fitted inhibition curve with a large enough effect; inconclusive = small, poorly fitted or top-dose-only effect, or another doubt; inactive = no such curve, though single readings can be large or run the other way;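 note: the enzyme is Sfp with the accession as filed and its product quenches rhodamine fluorescence; potency is the fitted concentration of half-maximal effect; 0% = enzyme reaction without inhibitor and -100% = no enzyme wells; top concentration of the series not given in the record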
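Fluorescence-quenching assay: 15 nM Sfp-PPTase preincubated 15 min at room temperature with compound, then 5 uM rhodamine-CoA and 12.5 uM BHQ-2-labelled YbbR peptide added. Fluorescence (ex 525/em 598 nm) read at start and after 30 min; difference gives rate.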
CtBP-E1A blk: inhibitors of CtBP/E1A interaction; AlphaScreen GST-E1A/His-CtBP binding, 1536-well; stronger effect = lower value; control for the full effect not named in the record; activity change, % (test concentration not listed); actives 0.49% (n = 340,000); AID 651724; in the data active means activity change below about -65%; inconclusive means about -30% to -65%; inactive means above about -30%; note: % is set by controls: 0 for no effect and ±100 for the full control effect; compound concentration not given in the record
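GST-E1A and His-tagged CtBP (125 nM each as 5X stock) were preincubated with pin-transferred compound for 2 h at 37 °C in the dark, then glutathione donor and nickel acceptor beads were added for 1 h before AlphaScreen reading.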
Starred values were filed as active, the others as inactive; ? = inconclusive; . = not tested or not shown; [ ] = remark or other dose.

SMILES	Six1-Eya2 blk	TRPV1 potentiator	D2 potentiator	D2 ag	PINK1 expr mod	Sfp PPTase inh	CtBP-E1A blk
COn1c2c(c3c4no[n+]([O-])c4ccc31)CCCC2	-7.5	5.2	-14.3	-0.9	.	11.3%	11.1
O=C(Nc1ccc(F)cc1F)C1CCN(c2ncnc3c2sc2cccc(F)c23)CC1	-7.2	7.8	-2.7	1.3	1.8%	-10.6%	-9.2
CCCCC1(C)OC(=O)C(=Cc2ccc(SC)cc2)C(=O)O1 (stereo unspecified)	8.4	2.9	-6.3	-0.5	3.1%	19.9%	10.7
COc1ccc(C(=O)O/N=C/c2c(C(F)(F)F)nn(C)c2SCc2ccccc2Cl)cc1	9.3	0.7	-7.3	-1.1	-1.0%	-3.1%	8.2
O=C1/C(=C/c2cccnc2)SC(=NCc2ccccc2)N1Cc1ccccc1	-2.0	5.5	-3.9	-1.8	5.3%	-14.3%	-0.9
C[C@@H]1OC(Nc2ccc(N=Nc3ccccc3)cc2)[C@H](O)[C@H](O)[C@H]1O (stereo partly specified)	-6.6	3.3	-12.9	-0.5	6.7%	-1.2%	-10.2
c1csc(-c2nc(N3CCCCC3)no2)c1	1.4	-22.7	2.1	4.1	4.4%	4.2%	13.7
Cc1ccc(NC(=O)COC(=O)C2(c3ccc(Cl)cc3)CCCC2)cc1	9.0	-4.7	-5.5	-0.5	?	27.4%	1.1
Cc1cc(C(C)(C)C)ccc1NC(=O)CC(C)(C)CC(=O)O	-1.4	19.9	-2.2	3.4	-1.9%	-8.4%	0.3
O=C(Nc1ccc2c(c1)CCCN2C(=O)c1ccccc1)c1ccccc1Br	-3.4	-27.3	-6.2	0.5	-1.0%	8.3%	.
CCOC(=O)c1cnn(CCOC(=O)Cc2cccs2)c1NC(=O)Cc1cccs1	-0.6	5.5	-3.7	-3.4	-0.3%[38.3 µM]	11.7%	-0.9
C[C@@H]1CN([C@H](C)CO)C(=O)c2cc(C#CC3CCCCC3)cnc2O[C@H]1CN(C)Cc1cccnc1	-2.0	.	-0.7	-5.3	-0.5%	.	3.4
O=C(NC(=S)Nc1ccccc1[N+](=O)[O-])c1ccccc1	-6.7	-10.4	-6.1	-6.4	0.9%	28.2µM*	-3.6
CC(C)CC1NC2(C(=O)N(C)c3ccccc32)C2C(=O)N(C(C)C)C(=O)C12 (stereo unspecified)	-4.1	-11.9	1.8	-2.5	1.6%	-3.1%	0.3
Cc1ccc(C)c(C(=O)CCC(=O)N2CCN(c3cccc(C(F)(F)F)c3)CC2)c1	0.1	-2.7	-0.3	2.0	4.8%	.	14.9

Part of the list above, limited to TRPV1 potentiator, PINK1 expr mod and Six1-Eya2 blk.
compound,TRPV1 potentiator,PINK1 expr mod,Six1-Eya2 blk
Cc1ccc(C)c(C(=O)CCC(=O)N2CCN(c3cccc(C(F)(F)F)c3)CC2)c1,-2.7,4.8%,0.1
c1csc(-c2nc(N3CCCCC3)no2)c1,-22.7,4.4%,1.4
O=C(Nc1ccc(F)cc1F)C1CCN(c2ncnc3c2sc2cccc(F)c23)CC1,7.8,1.8%,-7.2

(next part)
SMILES	Six1-Eya2 blk	TRPV1 potentiator	D2 potentiator	D2 ag	PINK1 expr mod	Sfp PPTase inh	CtBP-E1A blk
CC(=O)NCCOc1nc(N(C)C)nc(N2CCOCC2)n1	3.0	-9.5	0.2	0.6	-1.0%	17.6%	0.6
C=CCn1c(SCc2ccccc2F)nc2cc(C(=O)O)ccc2c1=O	-4.6	-13.3	0.1	2.3	1.6%	?	0.1
C/C(=N\NC(=O)CC(C)C)c1ccc(Cl)c(Cl)c1	-1.4	12.5	-15.9	-1.6	1.1%	-6.9%	3.2
Cc1cc(=O)[nH]c(-c2ccccc2)n1	1.3	1.4	-7.7	-3.8	2.8%	11.0%	3.4
CS(=O)(=O)Cc1cc(N2CCCC2)nc(-c2ccccc2)n1	5.9	-18.1	-2.8	-2.0	-0.8%	12.2%	5.1
COc1ccc(C(=O)/C=C/Nc2cc(C)on2)c(OC)c1	-8.5	2.8	-8.8	-4.4	-15.7%[38.3 µM]	3.6%	-11.4
CSc1sc(C(=O)NNC(=O)c2ccc(Cl)cc2)c2c1C=CCC2	0.6	0.3	-4.2	0.9	-0.1%	6.3%	-1.5
Cc1c(C2(O)CCCCC2)[nH]c2cnccc12	0.1	-6.2	-6.9	-3.7	0.9%	.	0.5
Cc1ccc2nc(-c3ccncc3)cc(C(=O)Nc3ccc(F)cc3C)c2c1	-6.1	-5.3	21.3	4.1	8.9%	3.8%	4.7
Cc1ccc(C(=O)c2ccccc2C(=O)Nc2ccccc2)cc1	5.0	?	-9.9	-1.3	5.3%	.	5.1
CC(NC(=O)C(NS(=O)(=O)c1cccc2nsnc12)C(C)C)c1ccccc1 (stereo unspecified)	-2.6	-11.2	-0.8	-2.2	-1.2%	15.4%	2.7
Cc1c(CC(=O)O)c(=O)oc2cc(OCc3ccc(F)cc3Cl)ccc12	-0.9	16.8	-2.2	-5.0	-1.9%	6.6%	-1.9
CCCSCCCNC(=O)CC1Oc2ccccc2NC1=O (stereo unspecified)	-2.4	5.3	-4.4	-1.0	1.6%	18.9%	6.3
CCCc1cc(=O)oc2cc(OCc3ccc(C(=O)O)o3)ccc12	-2.8	0.0	-4.3	-2.4	-0.4%	-5.7%	5.5
COc1ccccc1/C=N\N=C(\N)c1ccccn1	3.9	11.9	-5.2	2.5	2.5%	-3.1%	.

Records listed above shown as hits in Sfp PPTase inh.
| molecule | Six1-Eya2 blk | D2 potentiator | D2 ag | PINK1 expr mod | Sfp PPTase inh | CtBP-E1A blk |
| --- | --- | --- | --- | --- | --- | --- |
| O=C(NC(=S)Nc1ccccc1[N+](=O)[O-])c1ccccc1 | -6.7 | -6.1 | -6.4 | 0.9% | 28.2µM* | -3.6 |

New compounds follow:
SMILES	Six1-Eya2 blk	TRPV1 potentiator	D2 potentiator	D2 ag	PINK1 expr mod	Sfp PPTase inh	CtBP-E1A blk
O=C1c2cccnc2C(=O)N1c1cccc([N+](=O)[O-])c1	-19.1	2.2	-5.5	-2.4	-0.8%	10.1%	-26.3
CN1CCN(S(=O)(=O)c2ccc(NC(=O)c3cccs3)cc2)CC1	-6.4	2.3	-4.9	2.9	1.9%	12.1%	-2.2
Cc1ccc(C)n1-c1ccc(N2CCOCC2)c(Br)c1	-6.1	-8.5	-9.6	-2.1	1.5%	5.0%	-8.7
Cc1cc(C)c(S(=O)(=O)N2CCCCC2C(=O)O)c(C)c1 (stereo unspecified)	-8.9	7.2	5.7	0.1	-0.3%	18.9%	.
CCOC(=O)C1=C(c2ccccc2)NC(=O)N(C(C)=O)C1c1cccc([N+](=O)[O-])c1 (stereo unspecified)	-26.9	25.7	-3.7	-1.7	3.8%	3.4%	-2.4
CC1CC(C)(C)CC2(C1)NC(=O)N(CC(=O)OCc1ccc(Br)cc1)C2=O (stereo unspecified)	4.0	4.5	2.2	1.0	11.9%	.	-19.1
O=c1c2cc(N3CCOCC3)ccc2[nH]c(=S)n1Cc1cccc(Cl)c1	1.0	2.1	-2.3	-1.0	?	18.7%	24.9
COC(=O)c1ccc(NC(=O)CSc2nnc(-c3ccncc3)n2C)cc1	2.8	-3.0	-6.0	0.2	-1.9%[38.3 µM]	11.7%	-1.9
COc1ccc(NC(=O)CN(Cc2ccccc2)Cc2ccccc2)cc1S(N)(=O)=O	-3.8	3.7	-12.9	5.2	3.2%	4.4%	2.4
COCCn1c(SCc2c(F)cccc2Cl)nc2c1c(=O)[nH]c(=O)n2C	3.3	-37.2	-3.4	-4.0	-1.8%	-16.3%	5.1
CC(C)C(=O)N1CCN(S(=O)(=O)c2ccc3ccccc3c2)CC1	21.3	-23.2	-0.8	0.7	-1.2%	14.4%	0.0
CCCN(CCC)S(=O)(=O)c1cc(CN2C(=O)c3cccnc3C2=O)ccc1OC	-5.6	9.0	3.0	-7.1	-2.2%	1.5%	8.8
COC(=O)CN1C(=O)[C@H]2[C@@H](c3ccc(C)o3)N3C(=O)CN(Cc4ccc(-c5ccccc5)cc4)C(=O)[C@@]3(C)[C@H]2C1=O	1.9	-2.6	-0.5	1.1	2.6%	12.6µM*	1.9
CCOC(=O)/C(C#N)=C/NC(=O)NC(C)(C)C	4.8	9.1	-15.2	-2.0	-1.1%[38.3 µM]	13.3%	4.9
CC1CCC2(CC1)NC(=O)N(CC(=O)NCc1ccco1)C2=O (stereo unspecified)	-7.0	.	-7.2	-1.8	0.5%	.	-2.6

Some of the entries so far, field by field.
COc1ccc(NC(=O)CN(Cc2ccccc2)Cc2ccccc2)cc1S(N)(=O)=O
  Six1-Eya2 blk: -3.8
  TRPV1 potentiator: 3.7
  D2 potentiator: -12.9
  D2 ag: 5.2
  PINK1 expr mod: 3.2%
  Sfp PPTase inh: 4.4%
  CtBP-E1A blk: 2.4
COCCn1c(SCc2c(F)cccc2Cl)nc2c1c(=O)[nH]c(=O)n2C
  Six1-Eya2 blk: 3.3
  TRPV1 potentiator: -37.2
  D2 potentiator: -3.4
  D2 ag: -4.0
  PINK1 expr mod: -1.8%
  Sfp PPTase inh: -16.3%
  CtBP-E1A blk: 5.1

(next part)
SMILES	Six1-Eya2 blk	TRPV1 potentiator	D2 potentiator	D2 ag	PINK1 expr mod	Sfp PPTase inh	CtBP-E1A blk
COc1ccc(-c2cc(C(=O)OCC(=O)NC(C)C)c3ccccc3n2)cc1	4.2	-3.7	7.1	5.0	1.9%	-2.3%	-3.2
CCNS(=O)(=O)c1ccc(NC(=O)Cn2nc(C(F)(F)F)cc2C)cc1	-1.6	28.4	-2.1	-1.2	1.9%	-12.1%	-0.3
COc1ccc(/C=C/C(=O)OCC(=O)NC2CCS(=O)(=O)C2)cc1 (stereo unspecified)	-3.3	2.4	-6.0	-4.6	-0.6%	.	.
Cc1cc(C)cc(NC(=O)COC(=O)c2ccc(CN3CCCC3=O)cc2)c1	1.1	5.4	-2.8	0.0	0.9%	.	0.0
COc1ccc(N2C(=O)CSC23C(=O)Nc2ccccc23)cc1 (stereo unspecified)	-0.3	4.8	-4.8	-4.1	-0.6%	9.0%	-1.6
COc1ccc(/C=N/Nc2snc(SC)c2C#N)cc1OC	-17.4	6.2	22.9	3.0	1.0%	?	?
O=C(Cn1nnc2c(cnn2-c2ccccc2)c1=O)N1CCN(c2ccccc2F)CC1	-0.9	-24.9	0.0	-1.2	1.8%	6.1%	-3.3
CCCCNC(=O)CC1N=C2c3ccccc3N=C(SCC(=O)Nc3ccc(OC)cc3)N2C1=O (stereo unspecified)	-2.7	2.9	-0.3	-1.9	2.8%	9.6%	1.8
